# Env fusion inh = HIV envelope-mediated fusion inhibition; AID 651610; actives 1.1% (n = 360,000); HeLa-JRFL Env/CEM21 cell fusion, luciferase; inhibition, % at 12.3 µM;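 active = mean replicate inhibition score of at least 50 and every replicate individually at or above 50; inconclusive = only one of the two criteria met; inactive = mean below 50 and not all replicates reaching 50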;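 note: 0% = plate neutral controls and 100% = maraviroc near 300 nM; one replicate is shown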
# UUG fidelity = alters start codon recognition fidelity in yeast | actives 0.13% (n = 350,000) | activity score, % at 18.7 µM | S. cerevisiae UUG-firefly luciferase reporter, luminescence/redox ratio;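 active = replicate mean at a twofold rise or more, about +100% in these data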;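 note: firefly luciferase made from a UUG start codon reports start codon fidelity; reporter light over untreated wells divided by growth signal over untreated wells; some hits fall short of that in this replicate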
# * hit, by the source's call; ? = inconclusive; [ ] = remark or other dose.
Env fusion inh	UUG fidelity	Compound
8.9[16.7 µM]	-9.4	C[C@@H]1CN([C@@H](C)CO)C(=O)c2cc(-c3ccc(C#N)cc3)cnc2O[C@@H]1CN(C)CC1CCOCC1
-16.3[16.7 µM]	-6.7	Cc1noc(C)c1S(=O)(=O)Nc1ccc2c(c1)C(=O)N([C@@H](C)CO)C[C@@H](C)[C@H](CN(C)S(=O)(=O)c1ccccc1)OCCCC[C@H](C)O2
5.2[16.7 µM]	-7.8	C[C@H]1CCCCO[C@H](CN(C)S(=O)(=O)c2ccc(Cl)cc2)[C@@H](C)CN([C@@H](C)CO)C(=O)c2cc(NS(=O)(=O)c3ccc(Cl)cc3)ccc2O1
13.6[16.7 µM]	-10.1	COc1ccc(NC(=O)N[C@H]2CC[C@@H](CCn3cc(-c4ccc(OC)cc4)nn3)O[C@H]2CO)cc1
5.8[16.7 µM]	-10.2	C[C@@H]1CCCCO[C@@H](CN(C)C(=O)Cc2ccccc2)[C@@H](C)CN([C@H](C)CO)C(=O)c2cc(NC(=O)CCCN(C)C)ccc2O1
-1.4[16.7 µM]	8.7	Cc1cc(C(=O)Nc2cccc3c2O[C@@H](CN(C)C(=O)Nc2cccc4ccccc24)[C@@H](C)CN([C@@H](C)CO)C3=O)n(C)n1
3.1[16.7 µM]	-10.5	C[C@@H]1CN([C@@H](C)CO)C(=O)c2cc(C#CC3CCCCC3)cnc2O[C@@H]1CN(C)Cc1ccncc1
-0.6[16.7 µM]	-0.4	CO[C@@H]1CN(C)C(=O)c2cc(NC(=O)c3cnccn3)ccc2OC[C@H](C)N(C)C[C@@H]1C
-3.9[16.7 µM]	29.4	CC(=O)N(C)C[C@@H]1Oc2cc(-c3ccc(C#N)cc3)ccc2S(=O)(=O)N([C@@H](C)CO)C[C@H]1C
-10.2[16.7 µM]	1.6	C[C@@H]1CCCCO[C@@H](CN(C)C(=O)NC2CCCCC2)[C@@H](C)CN([C@H](C)CO)C(=O)c2cc(NC(=O)CCC(F)(F)F)ccc2O1
1.4[16.7 µM]	7.8	Cc1ccc(S(=O)(=O)N(C)C[C@H]2OCCCC[C@H](C)Oc3ccc(NS(=O)(=O)c4cn(C)cn4)cc3C(=O)N([C@@H](C)CO)C[C@@H]2C)cc1
3.8[16.7 µM]	-3.9	Cc1noc(C)c1NC(=O)N(C)C[C@H]1Oc2ccc(NC(=O)Nc3ccc4c(c3)OCO4)cc2CC(=O)N([C@H](C)CO)C[C@H]1C
-14.7[16.7 µM]	16.6	COc1ccc(COCC23N=C4SCC(=O)N4[C@H](c4ccccc4O2)[C@H]3CO)cc1
0.5[16.7 µM]	0.2	C[C@@H]1CCCCO[C@@H](CN(C)S(=O)(=O)c2ccc(Cl)cc2)[C@H](C)CN([C@H](C)CO)C(=O)c2cc(NC(=O)CCCN(C)C)ccc2O1
13.9[16.7 µM]	-13.9	NCC[C@@H]1CC[C@H](NS(=O)(=O)Cc2ccccc2)[C@H](CO)O1
-0.4[16.7 µM]	2.1	CC(C)NC(=O)N(C)C[C@@H]1Oc2ccc(NC(=O)Nc3ccc(F)cc3)cc2CC(=O)N([C@H](C)CO)C[C@@H]1C
1.9[16.7 µM]	-1.2	COc1cccc(-c2ccc3c(c2)O[C@H](CN(C)C(C)=O)[C@H](C)CN([C@H](C)CO)S3(=O)=O)c1
-21.8[16.7 µM]	-0.7	COc1cccc(S(=O)(=O)N[C@H]2CC[C@H](CC(=O)NCc3ccc(F)cc3)O[C@@H]2CO)c1
-1.0[16.7 µM]	-8.5	C[C@@H]1CN([C@H](C)CO)C(=O)Cc2cc(NC(=O)Cc3cn(C)c4ccccc34)ccc2O[C@H]1CN(C)Cc1ccc(Cl)c(Cl)c1
9.3[16.7 µM]	15.6	CCCN(C)C[C@@H]1Oc2cc(C#Cc3ccccc3F)ccc2S(=O)(=O)N([C@@H](C)CO)C[C@H]1C
49.9[16.7 µM]	-13.2	CO[C@@H]1CN(C)C(=O)c2cc(NS(=O)(=O)c3cn(C)cn3)ccc2OC[C@@H](C)N(Cc2cccc(Cl)c2)C[C@H]1C
7.2[16.7 µM]	-2.0	Cc1ccccc1-c1cnc2c(c1)C(=O)N([C@@H](C)CO)C[C@@H](C)[C@@H](CN(C)Cc1ccccc1F)O2
12.0[16.7 µM]	-3.9	C[C@H]1CN([C@@H](C)CO)C(=O)c2cc(-c3ccc(C#N)cc3)cnc2O[C@H]1CN(C)Cc1cccnc1
-128.9[16.7 µM]	3.1	Cc1noc(C)c1NC(=O)Nc1cccc2c1O[C@@H](CN(C)Cc1ccc(C(F)(F)F)cc1)[C@H](C)CN([C@H](C)CO)C2=O
55.3*[16.7 µM]	22.1	COc1ccc(S(=O)(=O)Nc2ccc3c(c2)C(=O)N([C@H](C)CO)C[C@@H](C)[C@@H](CN(C)Cc2ccc(C(F)(F)F)cc2)OCCCC[C@@H](C)O3)cc1
11.5[16.7 µM]	-23.9	CC(C)NC(=O)N[C@@H]1CC[C@H](CC(=O)NC2Cc3ccccc3C2)O[C@@H]1CO
15.3[16.7 µM]	-3.4	Cc1ccc(S(=O)(=O)Nc2ccc3c(c2)C(=O)N([C@H](C)CO)C[C@@H](C)[C@H](CN(C)C(=O)C2CCCCC2)OCCCC[C@H](C)O3)cc1
1.2[16.7 µM]	-9.3	COc1ccc(NC(=O)Nc2ccc3c(c2)C(=O)N([C@H](C)CO)C[C@@H](C)[C@@H](CN(C)S(=O)(=O)c2cn(C)cn2)O3)cc1
?	-5.3	C[C@@H]1CN([C@H](C)CO)S(=O)(=O)c2ccc(C#CC3CC3)cc2O[C@@H]1CN(C)Cc1ccncc1
27.5[16.7 µM]	6.1	COc1ccc(CN(C)C[C@@H]2Oc3ccc(NC(=O)Nc4ccc5c(c4)OCO5)cc3CC(=O)N([C@H](C)CO)C[C@@H]2C)cc1
-2.0[16.7 µM]	-1.9	CC(C)NC(=O)N(C)C[C@H]1Oc2c(cccc2N(C)C)C(=O)N([C@@H](C)CO)C[C@H]1C
29.7[16.7 µM]	-3.3	Cc1ccc(S(=O)(=O)N[C@H]2C=C[C@H](CC(=O)N3CCN(c4ccccc4)CC3)O[C@H]2CO)cc1
-9.3[16.7 µM]	12.7	Cc1ccc(S(=O)(=O)N(C)C[C@H]2OCCCC[C@@H](C)Oc3ccc(NS(=O)(=O)c4ccccc4)cc3C(=O)N([C@H](C)CO)C[C@H]2C)cc1
-8.7[16.7 µM]	9.4	COCC#Cc1ccc2c(c1)O[C@H](CN(C)C(C)=O)[C@@H](C)CN([C@@H](C)CO)S2(=O)=O
-2.9[16.7 µM]	9.8	COc1ccccc1-c1cnc2c(c1)C(=O)N([C@H](C)CO)C[C@H](C)[C@@H](CN(C)Cc1cccnc1)O2
3.4[16.7 µM]	-5.1	Cc1ccccc1S(=O)(=O)NCC[C@@H]1CC[C@H](NC(=O)C2CC2)[C@H](CO)O1
-31.4[16.7 µM]	-4.0	Cc1ccccc1-c1ccc2c(c1)O[C@@H](CN(C)C(=O)Nc1ccccc1)[C@@H](C)CN([C@H](C)CO)S2(=O)=O
-54.0[16.7 µM]	2.7	COc1ccc(NC(=O)N(C)C[C@H]2Oc3c(NC(=O)C4CC4)cccc3C(=O)N([C@H](C)CO)C[C@H]2C)cc1
-0.7[16.7 µM]	-19.7	O=C(C[C@@H]1C[C@@H]2c3cc(NC(=O)c4cccnc4)ccc3O[C@@H]2[C@H](CO)O1)NCc1ccccc1F
-17.2[16.7 µM]	-5.9	CC(=O)N(C)C[C@H]1Oc2ncc(-c3ccc(F)cc3)cc2C(=O)N([C@H](C)CO)C[C@@H]1C
88.3*[16.7 µM]	12.4	O=C(C[C@H]1C[C@@H]2c3cc(NC(=O)C4CCC4)ccc3O[C@@H]2[C@@H](CO)O1)NCC(F)(F)F
-24.6[16.7 µM]	7.6	COc1ccc(S(=O)(=O)N(C)C[C@@H]2Oc3ccc(NS(=O)(=O)c4c(C)noc4C)cc3CC(=O)N([C@@H](C)CO)C[C@H]2C)cc1
-33.9[16.7 µM]	9.7	C[C@@H]1CCCCO[C@@H](CN(C)S(C)(=O)=O)[C@H](C)CN([C@H](C)CO)C(=O)c2cc(NC(=O)C3CCCCC3)ccc2O1
9.6[16.7 µM]	3.7	COc1cccc(S(=O)(=O)N[C@H]2CC[C@@H](CCn3cc(-c4ccc(F)cc4)nn3)O[C@@H]2CO)c1
-2.3[16.7 µM]	1.7	COc1cccc(S(=O)(=O)N[C@H]2CC[C@@H](CCNC(=O)Cc3ccncc3)O[C@H]2CO)c1
20.3[16.7 µM]	-15.0	Cc1ccc(S(=O)(=O)Nc2ccc3c(c2)C(=O)N([C@H](C)CO)C[C@@H](C)[C@@H](CN(C)C(=O)Nc2c(C)noc2C)O3)cc1
25.5[16.7 µM]	5.3	C[C@H](CO)N1C[C@H](C)[C@@H](CN(C)C(=O)Nc2ccc(C(F)(F)F)cc2)Oc2ccc(NC(=O)Nc3ccc4c(c3)OCO4)cc2CC1=O
-4.8[16.7 µM]	-6.5	O=C(C[C@H]1C[C@H]2c3cc(NC(=O)NC4CCCC4)ccc3O[C@H]2[C@@H](CO)O1)NCc1ccccc1
15.7[16.7 µM]	-15.2	C[C@H](NC(=O)C[C@@H]1CC[C@H](NC(=O)C2CC2)[C@H](CO)O1)c1ccccc1
20.2[16.7 µM]	11.3	CNC[C@@H]1OCCCC[C@H](C)Oc2ccc(NC(=O)Nc3ccc(C(F)(F)F)cc3)cc2C(=O)N([C@@H](C)CO)C[C@@H]1C
-4.0[16.7 µM]	27.5	CCCN(C)C[C@H]1OCCCC[C@@H](C)Oc2ccc(NC(=O)C3CCCCC3)cc2C(=O)N([C@@H](C)CO)C[C@H]1C
-7.7[16.7 µM]	-2.1	O=S(=O)(N[C@@H]1CCCN(Cc2ccc(OCCO)cc2)C1)c1cc(Cl)ccc1Cl
-20.7[16.7 µM]	4.2	C[C@H]1CN([C@@H](C)CO)C(=O)c2cccc(NS(=O)(=O)c3ccccc3)c2O[C@H]1CN(C)S(=O)(=O)c1ccccc1
-7.5[16.7 µM]	-6.0	C[C@@H]1CN([C@@H](C)CO)C(=O)c2cc(NS(C)(=O)=O)ccc2O[C@@H](C)CCCCO[C@@H]1CN(C)C(=O)NC1CCCCC1
-72.6[16.7 µM]	1.8	O=C1O[C@@H](c2ccccc2)[C@@H](c2ccccc2)N2[C@@H](c3ccccc3OCCO)[C@]3(C(=O)Nc4ccccc43)[C@@H](C(=O)O)[C@H]12
23.6[16.7 µM]	-0.4	C[C@@H]1CCCCO[C@@H](CN(C)S(=O)(=O)c2cn(C)cn2)[C@@H](C)CN([C@@H](C)CO)C(=O)c2cc(NC(=O)c3ccccc3)ccc2O1
-24.1[16.7 µM]	8.0	COCC(=O)N(C)C[C@@H]1Oc2ncc(C#CCC3CCCC3)cc2C(=O)N([C@H](C)CO)C[C@@H]1C
8.6[16.7 µM]	14.2	Cc1ccc(S(=O)(=O)Nc2ccc3c(c2)C(=O)N([C@H](C)CO)C[C@H](C)[C@H](CN(C)C(=O)Nc2ccc(F)cc2)OCCCC[C@H](C)O3)cc1
3.9[16.7 µM]	1.0	O=C(C[C@H]1CC[C@H]2[C@@H](COC[C@@H](O)CN2C(=O)c2cccnc2)O1)NCc1ccc(Cl)cc1
-37.0[16.7 µM]	23.9	CO[C@@H]1CN(C)C(=O)c2ccc(NC(C)=O)cc2OC[C@@H](C)N(C(=O)c2ccccn2)C[C@H]1C

# Reformatted: 9 of the compounds above
molecule,Env fusion inh,UUG fidelity
O=S(=O)(N[C@@H]1CCCN(Cc2ccc(OCCO)cc2)C1)c1cc(Cl)ccc1Cl,-7.7[16.7 µM],-2.1
C[C@H]1CN([C@@H](C)CO)C(=O)c2cccc(NS(=O)(=O)c3ccccc3)c2O[C@H]1CN(C)S(=O)(=O)c1ccccc1,-20.7[16.7 µM],4.2
C[C@@H]1CN([C@@H](C)CO)C(=O)c2cc(NS(C)(=O)=O)ccc2O[C@@H](C)CCCCO[C@@H]1CN(C)C(=O)NC1CCCCC1,-7.5[16.7 µM],-6.0
O=C1O[C@@H](c2ccccc2)[C@@H](c2ccccc2)N2[C@@H](c3ccccc3OCCO)[C@]3(C(=O)Nc4ccccc43)[C@@H](C(=O)O)[C@H]12,-72.6[16.7 µM],1.8
C[C@@H]1CCCCO[C@@H](CN(C)S(=O)(=O)c2cn(C)cn2)[C@@H](C)CN([C@@H](C)CO)C(=O)c2cc(NC(=O)c3ccccc3)ccc2O1,23.6[16.7 µM],-0.4
COCC(=O)N(C)C[C@@H]1Oc2ncc(C#CCC3CCCC3)cc2C(=O)N([C@H](C)CO)C[C@@H]1C,-24.1[16.7 µM],8.0
Cc1ccc(S(=O)(=O)Nc2ccc3c(c2)C(=O)N([C@H](C)CO)C[C@H](C)[C@H](CN(C)C(=O)Nc2ccc(F)cc2)OCCCC[C@H](C)O3)cc1,8.6[16.7 µM],14.2
O=C(C[C@H]1CC[C@H]2[C@@H](COC[C@@H](O)CN2C(=O)c2cccnc2)O1)NCc1ccc(Cl)cc1,3.9[16.7 µM],1.0
CO[C@@H]1CN(C)C(=O)c2ccc(NC(C)=O)cc2OC[C@@H](C)N(C(=O)c2ccccn2)C[C@H]1C,-37.0[16.7 µM],23.9

# Additional entries follow:
Env fusion inh	UUG fidelity	Compound
6.9[16.7 µM]	-9.4	C[C@H]1CN([C@@H](C)CO)S(=O)(=O)c2ccc(/C=C/c3ccccc3)cc2O[C@H]1CN(C)C(=O)c1ccncc1
-16.5[16.7 µM]	13.3	COc1ccc(NC(=O)N(C)C[C@@H]2OCCCC[C@@H](C)Oc3ccc(NS(=O)(=O)c4ccccc4)cc3C(=O)N([C@H](C)CO)C[C@@H]2C)cc1
48.6[16.7 µM]	5.8	Cc1ccc(S(=O)(=O)N[C@H]2CC[C@@H](CCNC(=O)Nc3ccc(Cl)cc3)O[C@@H]2CO)cc1
4.0[16.7 µM]	-6.9	Cc1noc(C)c1NC(=O)N(C)C[C@@H]1Oc2c(NS(=O)(=O)c3ccc(Cl)cc3)cccc2C(=O)N([C@H](C)CO)C[C@H]1C
-1.5[16.7 µM]	-17.8	O=C(C[C@@H]1CC[C@@H]2[C@H](COC[C@@H](O)CN2C(=O)c2cccnc2)O1)NCc1ccc(Cl)cc1

# Source: PubChem

# An excerpt, so the mix of outcomes need not match the whole.
